# CSC inhib – blocks cancer stem cells | 300,000 compounds, 1.1% hits | inhibition, % at 7.5 µM | cancer stem cell-like cells viability, luminescence;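 active means mean at 75% or more and at least half the replicates too; inconclusive means mean and replicates disagree; tested in HMLE shEcad cells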;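 further: 0% = median of negative and 100% = median of positive control wells; the first replicate is given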
# HIV Env fusion – HIV envelope-mediated fusion inhibition | HeLa-JRFL Env/CEM21 cell fusion, luciferase | inhibition, % at 12.3 µM | 360,000 compounds, 1.1% hits;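 active means mean replicate inhibition score of at least 50 and every replicate individually at or above 50; inconclusive means only one of the two criteria met; inactive means mean below 50 and not all replicates reaching 50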;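 further: 0% = plate neutral controls and 100% = maraviroc near 300 nM; one replicate is shown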
# Yeast UUG start – alters start codon recognition fidelity in yeast; S. cerevisiae UUG-firefly luciferase reporter, luminescence/redox ratio; activity score, % at 18.7 µM; 350,000 compounds, 0.13% hits; AID 602363;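 active means replicate mean at a twofold rise or more, about +100% in these data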;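 further: firefly luciferase made from a UUG start codon reports start codon fidelity; reporter light over untreated wells divided by growth signal over untreated wells; some hits fall short of that in this replicate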
# PABP FP inh – PABP-poly(A) binding inhibition. P11940. PABP-poly(A) RNA binding, fluorescence polarization. AID 2014. 290,000 compounds, 1% hits. inhibition, % at 35 µM;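 active means 50% or more with normal probe brightness, or confirmed in later tests; inconclusive means above 50% with abnormal brightness, or retests that disagree; inactive means below 50% or failed in later tests; about a fifth of its hits are not listed in these tables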;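 further: calls also rest on retests at 20 µM and on dose response follow-up; controls were probe without protein and protein plus probe with vehicle; some compounds called inactive have numbers as strong as hits; many hits fall short of the cut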
# Target sequence (P11940 whole entry, looked up): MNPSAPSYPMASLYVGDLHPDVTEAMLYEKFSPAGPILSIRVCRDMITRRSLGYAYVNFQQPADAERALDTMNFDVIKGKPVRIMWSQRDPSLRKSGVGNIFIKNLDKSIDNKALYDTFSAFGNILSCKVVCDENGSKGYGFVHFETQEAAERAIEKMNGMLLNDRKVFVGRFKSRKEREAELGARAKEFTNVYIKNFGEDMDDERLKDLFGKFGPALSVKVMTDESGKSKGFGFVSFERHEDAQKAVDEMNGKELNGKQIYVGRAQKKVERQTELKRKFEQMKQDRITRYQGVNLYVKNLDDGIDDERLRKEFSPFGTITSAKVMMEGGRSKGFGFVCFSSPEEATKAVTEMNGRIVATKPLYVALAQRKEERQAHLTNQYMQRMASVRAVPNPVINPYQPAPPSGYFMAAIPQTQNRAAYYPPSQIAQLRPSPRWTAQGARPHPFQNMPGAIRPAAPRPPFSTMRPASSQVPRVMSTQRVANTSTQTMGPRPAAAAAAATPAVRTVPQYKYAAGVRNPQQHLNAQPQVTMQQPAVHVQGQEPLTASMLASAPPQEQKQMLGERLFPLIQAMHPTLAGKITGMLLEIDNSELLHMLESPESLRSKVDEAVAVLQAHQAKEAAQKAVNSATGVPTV
# MT1-MMP act inh – inhibitors of human MT1-MMP activation; HT1080 RFP-PRO-GFP cells, GFP/RFP ratio fluorescence, overnight; percent of plate control window, DMSO zero; GFP/RFP ratio change, % at 20 µM; 360,000 compounds, 0.061% hits; AID 651647;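 active means GFP/RFP ratio change of at least 30% with cell ATP level not reduced by more than half and red fluorescence within 50% of control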; further: strong numbers were not always called active
#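 Assay system – RFP-PRO-GFP reporter HT1080 cells · Compound dosing – single dose of 20 µM compound, 1% DMSO final · Incubation – overnight compound exposure at 37 °C · Measure – GFP/RFP fluorescence ratio · Benchmarks – DMSO wells and RFP-L50D-GFP cells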
# Rce1 inh – yeast Ras-converting enzyme inhibition; Q03530; yeast membranes, quenched prenylated peptide cleavage fluorescence; calls only; 290,000 compounds, 0.27% hits; AID 2563;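 active means fall in fluorescence gain of 50% or more versus controls, with final raw signal at or below 3038400; inconclusive means same 50% fall but final raw signal above 3038400; inactive means fall in fluorescence gain under 50%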;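 further: plate controls were neutral control wells for no effect and wells lacking membranes for full effect; tested at 10 µM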
# Target sequence (Q03530 whole entry, looked up): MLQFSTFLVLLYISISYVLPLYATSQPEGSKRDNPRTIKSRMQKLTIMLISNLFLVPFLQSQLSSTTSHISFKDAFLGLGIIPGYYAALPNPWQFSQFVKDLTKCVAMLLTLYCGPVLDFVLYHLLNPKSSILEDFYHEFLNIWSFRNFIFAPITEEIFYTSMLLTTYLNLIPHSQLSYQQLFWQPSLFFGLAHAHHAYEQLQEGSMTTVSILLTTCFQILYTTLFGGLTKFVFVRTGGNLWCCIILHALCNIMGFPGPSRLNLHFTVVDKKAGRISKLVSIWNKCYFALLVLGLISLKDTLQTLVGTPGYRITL
# eIF4H FP inh – inhibitors of RNA binding by human eIF4H | Q15056 | 290,000 compounds, 0.94% hits | AID 2012 | inhibition, % at 35 µM | eIF4H fluorescence polarization binding assay;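 active means 50% or more with normal probe brightness, or confirmed in later tests; inconclusive means above 50% with abnormal brightness, or retests that disagree; inactive means below 50% or failed in later tests; about a fifth of its hits are not listed in these tables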;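 further: calls also rest on retests at 20 µM and on dose response follow-up; 0% = protein and probe with vehicle and 100% = probe without protein; strong numbers were not always called active; many hits fall short of the cut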
# eIF4H FP inh retest – further read-out of eIF4H FP inh, marked with its call; inhibition, %; compound at 20 µM; confirmation average;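 mean of two retest wells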
# PABP FP inh retest – second read-out of PABP FP inh, no call of its own (marks repeat the call); inhibition, %; compound at 20 µM; confirmation repeats;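 mean of two retest wells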
# MT1-MMP act inh RFP – also measured in MT1-MMP act inh; calls as there; RFP signal change, %; measured here: RFP expression control read;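 0 = vehicle wells; hits needed this value within 50% of zero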
# * marks the source's active call; other numbers are inactive results; i = inactive; ? = inconclusive; · = no result given.
SMILES,CSC inhib,HIV Env fusion,Yeast UUG start,PABP FP inh,MT1-MMP act inh,MT1-MMP act inh RFP,Rce1 inh,eIF4H FP inh,others
Cc1ccc(OCCC(=O)OCC(=O)N2CCN(S(=O)(=O)c3ccc(C)cc3)CC2)cc1,-5,-227,-9,·,-1,3,i,·,
Cc1ccc([N+](=O)[O-])c(NC(=O)COC(=O)C2CC3CCCC(C2)C3=O)c1C (stereo not given),4,-1,-10,4,-5,-1,i,-7,
Cc1cc(C)nc(/N=C(\N)Nc2ccc(S(=O)(=O)O)cc2)n1,·,12,·,-8,-1,2,i,0,
COc1ccc2c(OC)cc(=O)n(C)c2c1,-8,-149,·,-1,3,2,i,0,
O=[N+]([O-])c1ccc(NC(=S)N2CCc3ccccc32)cc1,8,15,-24,-5,-1,-6,i,-7,
C/C(Cn1cnc([N+](=O)[O-])n1)=N\NC(=O)c1ccccc1O,-5,1,·,9,0,3,i,0,
CC(=O)Nc1nc(NC(=O)/C=C/c2ccccc2)n(-c2ccccc2)n1,14,10,·,0,5,1,i,-1,
CC1CC(C)(C)n2c(O)c(N=NC(N)=S)c3cccc1c32 (stereo not given),47,-20,-31,-5,-2,0,i,19,
Cc1ccc(S(=O)(=O)NCC(=O)OCC(=O)N(Cc2ccccc2)C(C)(C)C)cc1,3,-10,·,4,-2,1,i,-6,
COc1ccc2c(c1OC)C(=O)OC2Nc1nc2ccccc2s1 (stereo not given),4,17,-19,1,2,5,i,-4,
CCCCNC(=O)C1(C)CCN1C(=O)c1ccc(OC)c(F)c1 (stereo not given),·,0,-10,·,1,7,·,·,
O=C(O)c1cccc(NS(=O)(=O)c2cccc3cccnc23)c1,-7,6,7,-1,1,6,i,-5,
CCOC(=O)c1sc(NC(=O)CSc2nc3cccnc3n2C)nc1C,·,39,-3,-6,3,-9,i,-9,
CN(c1ccc(C(=O)N2CCN(Cc3ccc4c(c3)OCO4)CC2)cc1)S(C)(=O)=O,21,11,·,-5,-3,-5,i,-4,
Cc1ccc(C(=O)Cn2cccn2)cc1,-3,1,-15,5,2,5,i,-6,
Cc1c(C(=O)Nc2c3c(nn2C(C)(C)C)CS(=O)(=O)C3)cccc1[N+](=O)[O-],-24,4,-8,-14,-4,2,i,6,
CC(=O)c1[nH]c(C)c(C(C)=O)c1C,-6,-111,-1,22,-3,2,i,16,
O=C(c1cnn2c1NC(c1ccc(Br)cc1)CC2C(F)(F)F)N1CCN(C23CC4CC(CC(C4)C2)C3)CC1 (stereo not given),22,17,3,-2,-5,-3,i,1,
CC1CCCN(S(=O)(=O)c2ccc(C(=O)Nc3ccccc3-c3nc4ccccc4[nH]3)cc2)C1 (stereo not given),19,-15,·,-1,-3,-1,i,-10,
COc1ccc(N2CCN(c3ccc(C(N)=O)cc3[N+](=O)[O-])CC2)cc1,3,1,-19,0,-2,-9,i,-3,
NC(=O)c1sc2nc3c(c(-c4cccs4)c2c1N)CCCC3,·,·,·,9,·,·,i,78,eIF4H FP inh retest=-15;PABP FP inh retest=8
Cc1ccc(C(=O)N2CCN(S(=O)(=O)N3CCCCCC3)CC2)cc1,·,2,-14,-6,5,8,i,0,
CCC(C(=O)NC1CCCC1)N(C(=O)Cn1nnc(-c2ccc(C)o2)n1)c1cccc(O)c1 (stereo not given),4,15,-7,0,-1,1,i,-8,
COc1ccc(C(=O)N/N=C(\C)CC(=O)Nc2ccc3c(c2)OCCO3)c(OC)c1,-12,0,-16,2,-2,0,i,2,
COc1ccc(-n2c3c(c(=O)[nH]c2=O)C(C(F)(F)F)(C(F)(F)F)N=C(CC(C)C)N3)cc1,12,-6,-8,-6,-3,-3,i,-13,
COc1ccc(/C=C2/SC(=O)N(CCC(=O)Nc3ccccc3C(=O)O)C2=S)cc1,13,11,-10,11,3,8,i,-6,
Cc1ccc(C(C)C)c(OCC(=O)NC(=S)Nc2ccccc2N2CCOCC2)c1,67,16,-10,-7,-4,-6,i,-6,
Cc1c(C(O)CN2CCC(C(N)=O)CC2)c2ccccc2n1C (stereo not given),-3,·,3,17,1,22,i,36,
Cc1ccc(NC(=O)CCC(=O)N/N=C/c2ccco2)c(C)c1,-6,-32,·,-9,-1,2,i,32,
Cc1cc(S(=O)(=O)Nc2c(NC3CCCCC3)c3ccccc3oc2=O)ccc1F,9,28,-11,1,-1,1,i,-6,
CC(=O)c1ccc(N2CCN(C(=O)C3CCN(S(=O)(=O)c4ccc5c(c4)CC(C)N5C(C)=O)CC3)CC2)cc1 (stereo not given),-1,-5,-8,13,5,-7,i,25,
CCOC(=O)CC(=O)CSc1nc2c(c(C)c1C#N)CCC2,5,·,·,13,3,11,i,18,
CC(=O)Nc1ccc(NC(=O)COc2c(C)cc(Br)cc2C)cc1,8,31,·,-8,-4,-1,·,-4,
Cc1cc(Oc2ccc(Cl)cc2)nc(SCC(=O)c2ccccc2)n1,31,20,·,7,-7,-7,i,6,
COc1cc(CNC(=O)c2cccc(COc3ccc(Cl)cc3)c2)cc(OC)c1,22,8,·,6,0,-7,i,-2,
CN(CCc1ccccc1)C(=O)c1cccc(NC(=O)Cc2cccc(NC(=O)C3CCN(C(=O)C4CCC4)CC3)c2)c1,·,-4,23,·,0,-11,·,·,
CCOC(=O)C1CCN(C(=O)C2(NC(=O)Nc3ccccc3Cl)CCCCC2)CC1,-2,-191,6,-4,-11,-6,i,-1,
O=C(COC(=O)C1CC1)NCCc1ccc(Cl)cc1,·,-4,-21,·,5,0,·,·,
Cc1cc(C)n2nc(C(=O)OCC(=O)N(Cc3ccccc3)C(C)C)nc2n1,·,-7,20,·,5,3,·,·,
CCCN(Cc1ccc(N(C)C)cc1)CC1CC1,-15,-3,-18,9,7,2,i,1,
CC(C)CC(=O)Nc1c2c(nn1-c1ccc(F)cc1)CS(=O)(=O)C2,-6,-1,-3,-13,1,4,i,2,
CC(C)OC(=O)CCNc1n[nH]c(=O)[nH]c1=O,3,-82,-16,-1,0,-1,i,8,
CCn1c(SCC(N)=O)nc2c(c1=O)C1(CCCC1)Cc1ccccc1-2,-7,·,·,11,5,-1,i,1,
CCCCOC(=O)CNc1n[nH]c(=S)[nH]c1=O,2,-9,-3,1,3,10,i,-4,
O=C(Cc1ccccc1)NCC1OCCc2ccccc21 (stereo not given),3,?,-11,14,-4,-3,i,-4,
CN(C)S(=O)(=O)Oc1cc(Cl)ccc1C(=O)Nc1ccc(F)cc1F,2,7,·,-17,-1,2,i,-5,
Cc1cc(C)c2cc(CN(Cc3nnnn3Cc3ccc(F)cc3)C3CCCC3)c(=O)[nH]c2c1,-11,85*,-14,7,-4,-6,i,-4,
CCOC(=O)N1CCC(NC(=O)c2ccc(CNS(=O)(=O)c3ccc(F)cc3)cc2)CC1,·,·,·,-10,3,-1,i,-3,
O=C(CCCC(=O)N(CC(=O)NC1CCCCC1)c1cccc(F)c1)Nc1ccccn1,·,5,-10,-3,-1,3,i,0,
CC1=C(C(=O)Nc2ccccc2C(=O)NC2CCCCC2)SCCO1,-6,2,-4,-11,2,2,i,-14,

# (more compounds)
SMILES,CSC inhib,HIV Env fusion,Yeast UUG start,PABP FP inh,MT1-MMP act inh,MT1-MMP act inh RFP,Rce1 inh,eIF4H FP inh,others
Cc1noc(C)c1S(=O)(=O)N(C)Cc1ccccc1,-2,2,-17,6,8,3,i,-1,
CN(CC(=O)NCCc1ccc(F)cc1)Cc1cccc(Cl)c1,0,18,·,32,1,7,i,-6,
CCn1cnc2scc(-c3ccccc3)c2c1=O,-8,-214,-10,-4,3,7,i,2,
Cc1cccc(NC(=O)c2cccc(NC(=O)c3ccco3)c2)c1C,3,0,1,·,3,2,i,·,
O=[N+]([O-])c1ccc(N2CCN(c3ccccc3O)CC2)cc1,2,1,-30,-4,3,0,i,-3,
CCNCCC(=O)N1c2ccccc2Sc2ccc(NC(=O)OCC)cc21,11,·,-19,-11,1,-1,i,-9,
CC1(c2ccccc2)NC(=O)N(CC(=O)Nc2ccccc2C(=O)N2CCCCC2)C1=O (stereo not given),2,-60,-18,·,1,0,i,·,
COc1ccc(C(=O)N(c2ccc(C)cc2)C2C=CS(=O)(=O)C2)cc1OC (stereo not given),-6,10,-8,3,2,-1,i,7,
Cn1nc(C(=O)OCC(=O)Nc2ccc3ccccc3c2)c2ccccc2c1=O,2,2,·,19,3,3,i,-9,
COc1ccc(/C(O)=C2/C(=O)C(=O)N(CC3CCCO3)C2c2cccc(O)c2)cc1 (stereo not given),-13,·,·,6,2,4,i,1,
O=C(COC(=O)Cc1ccccc1F)NNC(=O)c1ccc(Cl)cc1,8,-29,-20,·,-4,4,i,·,
CCc1ccc(OCCCC(=O)Nc2ccc(S(N)(=O)=O)cc2)cc1,-7,-1,·,-9,-3,-6,i,10,
COc1ccccc1NC(=O)C1=C(C)NC(=O)NC1c1ccc(C)s1 (stereo not given),10,3,4,-2,-4,0,i,-6,
Cc1ccc(S(=O)(=O)N2CCN(C(=O)c3ccccc3-c3nc4ccccc4s3)CC2)c(C)c1,-2,35,-13,·,1,0,i,·,
COc1ccc(CNC(=O)C2CCN(C(=O)N3CCOc4ccc(C)cc43)CC2)cc1,-7,·,9,-4,-4,-2,·,-2,
Cc1cccc2sc(NC(=O)C3c4ccccc4Oc4ccccc43)nc12,126*,·,-14,-1,-56,-43,i,0,
COc1ccc(C2CC(c3c(Cl)cccc3Cl)n3nc(N)nc3N2)cc1 (stereo not given),-2,7,-11,12,4,2,i,-4,

# Structural class, those above with fluorine (11)
SMILES,CSC inhib,HIV Env fusion,Yeast UUG start,PABP FP inh,MT1-MMP act inh,MT1-MMP act inh RFP,Rce1 inh,eIF4H FP inh,others
CCCCNC(=O)C1(C)CCN1C(=O)c1ccc(OC)c(F)c1 (stereo not given),·,0,-10,·,1,7,·,·,
O=C(c1cnn2c1NC(c1ccc(Br)cc1)CC2C(F)(F)F)N1CCN(C23CC4CC(CC(C4)C2)C3)CC1 (stereo not given),22,17,3,-2,-5,-3,i,1,
COc1ccc(-n2c3c(c(=O)[nH]c2=O)C(C(F)(F)F)(C(F)(F)F)N=C(CC(C)C)N3)cc1,12,-6,-8,-6,-3,-3,i,-13,
Cc1cc(S(=O)(=O)Nc2c(NC3CCCCC3)c3ccccc3oc2=O)ccc1F,9,28,-11,1,-1,1,i,-6,
CC(C)CC(=O)Nc1c2c(nn1-c1ccc(F)cc1)CS(=O)(=O)C2,-6,-1,-3,-13,1,4,i,2,
CN(C)S(=O)(=O)Oc1cc(Cl)ccc1C(=O)Nc1ccc(F)cc1F,2,7,·,-17,-1,2,i,-5,
Cc1cc(C)c2cc(CN(Cc3nnnn3Cc3ccc(F)cc3)C3CCCC3)c(=O)[nH]c2c1,-11,85*,-14,7,-4,-6,i,-4,
CCOC(=O)N1CCC(NC(=O)c2ccc(CNS(=O)(=O)c3ccc(F)cc3)cc2)CC1,·,·,·,-10,3,-1,i,-3,
O=C(CCCC(=O)N(CC(=O)NC1CCCCC1)c1cccc(F)c1)Nc1ccccn1,·,5,-10,-3,-1,3,i,0,
CN(CC(=O)NCCc1ccc(F)cc1)Cc1cccc(Cl)c1,0,18,·,32,1,7,i,-6,
O=C(COC(=O)Cc1ccccc1F)NNC(=O)c1ccc(Cl)cc1,8,-29,-20,·,-4,4,i,·,

# Some of the compounds tested; rates above refer to the full screens.
